Assay outcomes from PubChem.
TRPML1 ag – human mucolipin-1 channel agonism. activation, % (test concentration not listed). TRPML1-expressing cells, Ca2+ dye fluorescence, FDSS; host cell line not named in the record; reference of the full effect not given here. Q9GZU1. AID 624414. 0.12% of 410,000 active; in the data active = activation above about 50%; inconclusive = about 30% to 50%; inactive = below about 30%; further: 0% is about no effect; the text of the record puts the active cut at 80%
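Agonist activity was taken from a 110 s kinetic Ca2+ dye read on the FDSS after pinning compounds onto TRPML1-DL cells. The cells were seeded at 1,500/well with Tet inducer, incubated about 16 h, then dye-loaded at room temperature.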
Six1-Eya2 blk – Six1/Eya2 interaction inhibition | Q15475+O00167 | AlphaScreen GST-Six1/His-Eya2 binding, biochemical; stronger effect = lower value; control for the full effect not named in the record | activity change, % (no concentration beside the values) | 0.56% of 360,000 active | AID 651725; in the data active = activity change below about -65%; inconclusive = about -30% to -65%; inactive = above about -30%; further: on the % scale 0 is the no-effect control and ±100 the full control effect; compound concentration not given in the record
Target sequence (O00167 whole entry, looked up): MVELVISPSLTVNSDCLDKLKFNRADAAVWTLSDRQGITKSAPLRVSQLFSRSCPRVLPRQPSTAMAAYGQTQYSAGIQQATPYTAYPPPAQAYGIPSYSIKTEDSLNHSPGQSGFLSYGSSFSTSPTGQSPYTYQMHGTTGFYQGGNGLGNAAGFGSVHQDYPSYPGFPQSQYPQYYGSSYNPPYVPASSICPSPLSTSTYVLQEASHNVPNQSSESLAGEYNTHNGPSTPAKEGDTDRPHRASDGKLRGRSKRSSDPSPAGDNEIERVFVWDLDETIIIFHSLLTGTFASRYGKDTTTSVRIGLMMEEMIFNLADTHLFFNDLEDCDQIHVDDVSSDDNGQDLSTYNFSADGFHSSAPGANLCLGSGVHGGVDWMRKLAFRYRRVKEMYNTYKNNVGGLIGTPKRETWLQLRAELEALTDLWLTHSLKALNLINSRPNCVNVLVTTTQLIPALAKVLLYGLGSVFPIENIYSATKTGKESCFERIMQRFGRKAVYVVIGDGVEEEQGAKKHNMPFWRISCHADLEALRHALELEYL
Target sequence (Q15475 whole entry, looked up): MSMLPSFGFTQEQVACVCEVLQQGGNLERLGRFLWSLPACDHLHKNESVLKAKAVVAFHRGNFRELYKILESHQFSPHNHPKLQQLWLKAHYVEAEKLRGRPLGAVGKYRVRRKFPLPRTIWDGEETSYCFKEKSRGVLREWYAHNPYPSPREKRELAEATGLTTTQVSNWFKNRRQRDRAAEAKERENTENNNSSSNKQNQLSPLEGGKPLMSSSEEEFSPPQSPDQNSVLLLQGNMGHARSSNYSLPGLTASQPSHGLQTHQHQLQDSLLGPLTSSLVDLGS
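Compounds are tested against tagged Six1 and Eya2 proteins bridged by glutathione donor and nickel acceptor beads; after a one-hour incubation at 37 °C without light, AlphaScreen emission is recorded.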
D2 agonist – activates the human D2 dopamine receptor. P14416. DiscoveRx PathHunter D2 beta-arrestin, luminescence, 90 min; 100% = 57 uM dopamine signal. activation, % (test concentration not listed). 0.084% of 360,000 active; in the data active = activation above about 40%; inconclusive = about 15% to 40%; inactive = below about 15%; further: compound concentration not given in the record; the text of the record calls up to 30% inactive
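Agonist mode: compounds alone added to overnight-plated D2 PathHunter cells for 90 min at 37 C, with 57 uM final dopamine (EC100) defining full response. Beta-arrestin recruitment detected by chemiluminescent reagent, read after 1 h at ambient temperature.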
PINK1 modulator – PINK1 expression modulation. PINK1 immunofluorescence, high-content cytometry, 24 h. Potency, µM (series often up to 76.6 µM), inactives show at the top dose activation (PINK1 increase), usual class: activators. 0.2% of 410,000 active. AID 624263; active = well fitted activation curve with a large enough effect; inconclusive = small, poorly fitted or top-dose-only effect; inactive = flat fitted curve, though single readings scatter; cell line not stated here;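 further: potency means the concentration at half of the fitted maximal effect; % of control where 0% means no effect; nearly all actives have a fitted effect of over 65% in size; a mitochondrial uncoupler was the plate control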
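Stable cell line treated 24 h with compounds at 5 concentrations (CCCP controls), then fixed and immunostained for PINK1 plus nuclear and cell stains; PINK1 immunofluorescence quantified by laser-scanning microplate cytometry.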
D2 PAM – positive allosteric modulators of human D2 dopamine receptor. 0.23% of 360,000 active. DiscoveRx D2 beta-arrestin cells, luminescence, 90 min; 100% = 57 uM dopamine signal. potentiation, % (concentration not given with the values). P14416; active = potentiation of 50% or more; inconclusive = 30% to 50%; inactive = 30% or less;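 further: compound concentration not given in the record; tested on top of an EC20 dose of dopamine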
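PathHunter D2 cells, attached overnight at 37 deg C, received compound in DMSO plus dopamine at EC20 (50 nM final) for 90 min at 37 deg C. Beta-arrestin recruitment was read as luminescence after 1 h with detection reagent at ambient temperature.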
CtBP-E1A inh – CtBP/E1A binding inhibition | AlphaScreen GST-E1A/His-CtBP binding, 1536-well; stronger effect = lower value; control for the full effect not named in the record | activity change, % (test concentration not listed) | 0.49% of 340,000 active | AID 651724; in the data active means activity change below about -65%; inconclusive means about -30% to -65%; inactive means above about -30%; further: on the % scale 0 is the no-effect control and ±100 the full control effect; compound concentration not given in the record
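AlphaScreen with 125 nM GST-E1A and 125 nM His-CtBP (5X stocks) in Tris pH 8.0, 300 mM NaCl, BSA, Tween 20, TCEP. Compounds preincubated 2 h at 37 deg C, then glutathione donor/nickel acceptor beads added for 1 h at 37 deg C in dark.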
* marks the source's active call; other numbers are inactive results; ? = inconclusive; · = not tested or not shown; & = joins results of further samples; [ ] = remark or other dose. Rows are unselected, and some 1.3% of all compounds hit somewhere here.

Every second line gives: TRPML1 ag, Six1-Eya2 blk, D2 agonist, PINK1 modulator, D2 PAM, CtBP-E1A inh
(1) COCCCN1C(=O)C(O)=C(C(=O)c2ccco2)C1c1cccc(Br)c1 (configuration not stated)
  1.8, -1, 0.3, ·, 2, -3
(2) CCN(CC)S(=O)(=O)c1cc(C(=O)Nc2cc(Cl)ccc2N2CCN(C)CC2)ccc1Cl
  -0.2, 7, -0.5, ·, -8, -3
(3) CC(C)(C)OC(=O)CNC(=O)c1nc[nH]c1C(=O)NCc1ccccc1
  1.4, 5, -1.3, 1.5%, -7, -19
(4) Cn1cnnc1SC1CCCCC1NS(=O)(=O)c1ccc(Cl)cc1 (configuration not stated)
  0.2, 4, -0.3, -1.4%[38.3 µM], 4, 12
(5) Cc1ccc(S(=O)(=O)CCC(=O)NNC(=O)CN(C)S(=O)(=O)c2ccc(C)cc2)cc1
  0.3, 23, -1.8, 0.3%, 0, -15
(6) CCc1cc2ccc(C)cc2nc1SCC(=O)N1CCN(C(=O)c2ccco2)CC1
  -0.2, -12, -4.9, -0.1%, -7, -11
(7) Nn1c(COc2cccc(Br)c2)nnc1SCC(=O)NCC1CCCO1 (configuration not stated)
  0.7, 2, -4.3, 1.2%, -1, -17
(8) COc1ccc(CCN(Cc2nc3ccccc3c(=O)[nH]2)C(=O)c2ccco2)cc1OC
  -0.7, -1, -0.7, 1.2%, -12, 1
(9) CSc1nnc2c3cc(F)ccc3n(Cc3ccccc3)c2n1
  -1.4, 6, -1.4, 0.7%, -9, -3
(10) Clc1ccc(/C=N/N2CCN(Cc3ccccc3)CC2)cc1
  0.7, -20, -3.7, 1.2%, -6, ·
(11) COC(=O)CN(n1cnnc1)S(=O)(=O)c1ccccc1Cl
  0.4, -10, -0.9, -0.1%, -19, -8
(12) CC1(C(=O)Nc2ccc3c(c2)OCO3)CCN1C(=O)c1ccccc1 (configuration not stated)
  -1.0, 1, -2.2, -0.5%, -2, 3
(13) CCCOc1ccccc1C(=O)Nc1ccc(S(=O)(=O)N2CCN(C)CC2)cc1
  0.0, -13, -2.1, 1.6%, -5, -1
(14) Cc1ccc(C2CC(c3cccs3)=NN2C(=O)CSC2=NCCS2)cc1 (configuration not stated)
  0.7, -9, -5.5, -1.6%, -7, -3
(15) COc1ccc2[nH]c3c(NCCCOC(C)C)ncnc3c2c1
  -0.1, 0, 2.9, 5.8%, -4, 0
(16) Cc1ccc(C(=O)Nc2c(C)n(C)n(-c3ccccc3)c2=O)cc1S(=O)(=O)N1CCCCC1
  0.8, 7, 0.0, 1.1%, -9, 11
(17) S=C(NCc1ccccc1)NC1CCSc2ccccc21 (configuration not stated)
  4.1, -9, 3.2, 8.7%, -7, -1
(18) COc1cccc(NC(=O)c2ccc(-c3ccc([N+](=O)[O-])cc3)o2)c1
  0.0, -9, 0.4, 5.2%, -7, -27
(19) COc1cccc(OC)c1C(=O)OCC(=O)NC(=O)NCc1ccccc1
  3.1, -8, -6.3, 0.4%, -2, -1
(20) CCN(CC(=O)N1CCCC1)S(=O)(=O)c1ccc(Br)cc1
  0.5, 5, -0.9, 1.2%, -2, -7
(21) Cc1ccc2c(CC(=O)N3CCN(S(=O)(=O)c4ccccc4)CC3)coc2c1
  0.1, 6, -4.8, 0.6%, 7, 1
(22) CN(C)/C=N/C(=S)Nc1ccc(Br)cc1F
  -1.2, 6, -1.1, 2.3%, 2, -10
(23) CC(C)(C)c1ccccc1OCCOCCSc1ncccn1
  4.3, 30, 1.6, -3.9%, -18, 23
(24) Cc1cccc(N(Cc2ccccc2)C(=O)Cc2ccc(S(=O)(=O)N3CCOCC3)s2)c1
  1.3, -10, 1.0, 0.9%, 4, -4
(25) CCCCOCC(O)CN1CCN(C(C)=O)CC1 (configuration not stated)
  -0.1, -1, -0.3, ·, -31, 10
(26) CC1CCN(S(=O)(=O)c2ccc(NC(=O)Cn3nnc(-c4ccccc4F)n3)cc2)CC1
  2.7, -7, 0.9, ·, 22, -6
(27) COc1ccc(CNC(=O)CN(C)Cc2ccc(SC)cc2)cc1
  3.2, -11, -4.6, 0.8%, -16, 0
(28) CCc1ccc(NC(=O)C2CCCN(S(=O)(=O)c3ccc4[nH]c(=O)ccc4c3)C2)cc1 (configuration not stated)
  0.0&-0.6, 1, -1.6, 2.6%&-0.9%, -23, -1
(29) O=C(CNc1cccc([N+](=O)[O-])c1)N1CCN(S(=O)(=O)c2ccc(Cl)cc2)CC1
  -0.3, -1, 1.0, -1.0%, -3, -1
(30) O=C(Nc1cccc(Cl)c1)c1csc([C@@H]2C[C@H](O)[C@@H](CO)O2)n1
  0.2, 3, -1.4, 0.2%, -5, 7

In the list so far, these have fluorine:
Every second line gives: TRPML1 ag, Six1-Eya2 blk, D2 agonist, PINK1 modulator, D2 PAM, CtBP-E1A inh
(9) CSc1nnc2c3cc(F)ccc3n(Cc3ccccc3)c2n1
  -1.4, 6, -1.4, 0.7%, -9, -3
(22) CN(C)/C=N/C(=S)Nc1ccc(Br)cc1F
  -1.2, 6, -1.1, 2.3%, 2, -10
(26) CC1CCN(S(=O)(=O)c2ccc(NC(=O)Cn3nnc(-c4ccccc4F)n3)cc2)CC1
  2.7, -7, 0.9, ·, 22, -6

(list continues)
Every second line gives: TRPML1 ag, Six1-Eya2 blk, D2 agonist, PINK1 modulator, D2 PAM, CtBP-E1A inh
(31) CCOC(=O)C1=CC[C@@H](c2ccccc2C(F)(F)F)N(S(=O)(=O)c2ccc(C)cc2)[C@H]1c1ccc(C#N)cc1
  -0.5, 1, -5.3, 1.7%, -9, 6
(32) COC(=O)c1cc2ccsc2n1Cc1nc(-c2cccc(Cl)c2)oc1C
  0.9, -9, -2.8, 0.3%, -6, 5
(33) CCOc1ccccc1C(=O)NCC(=O)OCC(=O)c1c(N)n(C)c(=O)n(C)c1=O
  -0.5, 0, -4.3, 3.2%, -1, ·
(34) CCOC(=O)c1sc(NC(=O)CS(=O)(=O)c2ccc(C)cc2)nc1C
  1.4, 7, -5.8, -0.3%, -10, -10
(35) COc1ccc(-c2cn3c(C)c(C(=O)N4CCCc5ccccc54)sc3n2)cc1
  1.4, -4, -7.2, 0.5%, -11, -27
(36) Cc1ccccc1N1CCN(C2CCCN(C(=O)c3snnc3C)C2)CC1 (configuration not stated)
  0.4, -10, 3.0, -0.4%, -21, 8
(37) Cc1nc(C(=O)NNC(=O)c2ccc(Cl)cc2)c(C(F)(F)F)o1
  0.0, -1, -0.7, 0.1%, -4, -1
(38) COc1ccc(NC(=O)CCC(=O)c2cccs2)cc1S(=O)(=O)Nc1ccccc1Cl
  2.0, ?, -0.5, 0.5%, -22, ?
(39) CCOC(=O)c1ccc(-n2c(CCC(=O)O)ccc2-c2ccccc2)cc1
  1.0&0.9, -6, -4.9, -0.4%&-0.8%, -7, ·
(40) O=C(O)c1cc(-c2ccco2)nc2ccc(Br)cc12
  0.1&-0.2, ?, 0.8&-8.8, 0.9%&1.7%, -8&-3, -7&2
(41) CCCNC(=O)C1(C)CCN(C(=O)c2cccc(OC(F)(F)F)c2)C1 (configuration not stated)
  -0.4, 2, -2.5, 2.1%, -5, 6
(42) CN(C)CCn1c(=S)[nH]c2ccccc2c1=O
  -0.1, 3, 2.2, -0.3%, -19, 2
(43) O=c1cc(O)c2sc3nc(C(F)(F)F)c4c(c3c2[nH]1)CCCCC4
  -0.5, -2, 0.5, 2.5%, 1, -6
(44) Cc1ccc(OCC(=O)N2CCN(S(C)(=O)=O)CC2)cc1
  -1.3, 5, -0.6, 0.3%, -7, 4
(45) C/C(CC(=O)Nc1ccc(N(C)C)cc1)=N\NC(=O)c1ccc([N+](=O)[O-])cc1
  -0.9, -22, -0.9, 1.7%, -4, -16
(46) Cc1ccc(Nc2nnc(SCn3nnc4ccccc4c3=O)s2)cc1
  1.0, -28, 7.3, 3.7%, -2, -15
(47) O=C(CSc1nnc(-c2ccccc2Cl)o1)N1CCCC1
  1.0, 18, -2.1, -0.7%, -2, -3
(48) COc1ccc(S(=O)(=O)N(C)CC(=O)Nc2ccccc2OC)cc1
  4.1, 4, -2.4, 3.0%[38.3 µM], -4, 4
(49) CN(Cc1ccccc1)C(=O)C1(C)CCN1C(=O)Cc1ccc(Cl)cc1Cl (configuration not stated)
  -0.5, 5, 3.6, -0.3%, -1, 6
(50) O=S(=O)(Nc1nccs1)c1cnc(Cl)c(Br)c1
  3.1, -12, -0.6, -0.3%, -12, 0
(51) Cc1cc(Cl)nc(NC(=O)Nc2cccc(Cl)c2)n1
  0.1, 4, -2.3, 1.5%, -3, 3
(52) COc1ccc(CNC(=O)COc2cc3c(c4oc(=O)cc(C)c24)CCC(C)(C)O3)cc1OC
  ·, -13, 6.0, 2.2%, -10, -12
(53) Cc1cc(=O)[nH]c(-c2ccc(Cl)cc2)n1
  1.0, 6, 0.0, 2.9%, -6, 3
(54) O=C(COC(=O)C1CCCC1)NCc1ccc(Cl)cc1
  0.8, -2, -1.2, 0.0%, -2, 0
(55) Cc1ccc2[nH]c(-c3ccccc3)c(CN3CCOCC3)c(=O)c2c1
  -1.0, 5, 2.5, 6.2%, -10, 3
(56) O=c1c2ccccc2cnn1-c1ccc(Br)cc1
  1.6, 2, -3.3, 1.8%, 1, 9
(57) C[C@@H]1CCC2[C@](C)(CO)[C@@H](O)CC[C@]2(C)[C@@]12C[C@](CO)(CC(=O)O)CO2 (some centres not stated)
  -0.5, -3, -5.1, -0.2%, -3, ·
(58) CCCOc1cccc(C(=O)Nc2ccc(CN3CCOCC3)cc2)c1
  0.1, -9, -3.4, 0.3%, -6, 10
(59) CC1CC(C)CN(C(=O)CSc2nnc(-c3ccc(F)cc3)o2)C1 (configuration not stated)
  0.8, -3, -3.3, 2.6%, -2, 2
(60) N#CC(Cc1ccccc1OC(F)F)c1nc2ccccc2[nH]1 (configuration not stated)
  -0.8, 2, 0.9, 1.3%, 13, 0
(61) COc1ccc(-n2sc3ccc(F)cc3c2=O)cc1
  2.8, -16, 1.8, 2.7%, -20, -9
(62) Cc1noc(C)c1COc1ccc(C(=O)N2CCN(c3ccccn3)CC2)cc1
  0.5, -1, -5.2, 1.2%, 3, -6
(63) CCCC(=O)N1CCCC1(C)C(=O)NCCc1ccccn1 (configuration not stated)
  0.1, 13, -1.9, 1.1%, -3, 9

By substructure: those above containing a cyano group
Every second line gives: TRPML1 ag, Six1-Eya2 blk, D2 agonist, PINK1 modulator, D2 PAM, CtBP-E1A inh
(31) CCOC(=O)C1=CC[C@@H](c2ccccc2C(F)(F)F)N(S(=O)(=O)c2ccc(C)cc2)[C@H]1c1ccc(C#N)cc1
  -0.5, 1, -5.3, 1.7%, -9, 6
(60) N#CC(Cc1ccccc1OC(F)F)c1nc2ccccc2[nH]1 (configuration not stated)
  -0.8, 2, 0.9, 1.3%, 13, 0
